Lassa entry inh – blocks Lassa virus binding to or entry into cells; 1.2% of 300,000 active; Potency, µM (highest dose often 37.9 µM), inactives show at the top dose activity change, negative = inhibition, most hits filed as inhibitors; Lassa virus pseudotype entry inhibition, cell reporter; control for the full effect not named in the record; AID 540256; active means well fitted inhibition curve with a large enough effect; inconclusive means small, poorly fitted or top-dose-only effect, or effect the other way; inactive means flat fitted curve, though single readings scatter; tested in HEK293 cells; also: % is scaled to controls: 0 for no effect and ±100 for the full control effect; nearly all actives have a fitted effect of over 50% in size; luciferase read-out
Marburg entry inh – inhibitors of Marburg virus binding or cell entry | AID 540276 | 1.8% of 300,000 active | Potency, µM (highest dose often 37.8 µM), inactives show at the top dose activity change, negative = inhibition, hits mostly inhibitors | Marburg virus pseudotyped entry inhibition, cell reporter; control for the full effect not named in the record; about a third of the inactives were read at about 46 µM; active = well fitted inhibition curve with a large enough effect; inconclusive = small, poorly fitted or top-dose-only effect, or effect the other way; inactive = flat fitted curve, though single readings scatter; tested in HEK293 cells; about a fifth of its hits are not listed in these tables; also: % is scaled to controls: 0 for no effect and ±100 for the full control effect; luciferase read-out
StopGo reporter – lowers the luciferase signal of an FMDV 2A StopGo reporter; human cells with a luciferase reporter of 2A StopGo recoding; control for the full effect not named in the record; Potency, µM (doses to about 57.9 µM), inactives show top-dose signal change, negative = less light; 1.2% of 410,000 active; active = well fitted falling curve with a large enough effect; inconclusive = small, poorly fitted or top-dose-only effect; inactive = no such curve, though single readings can be large or run the other way; tested in HEK293T cells; also: % is scaled to controls: 0 for no effect and ±100 for the full control effect; nearly all actives have a fitted effect of over 45% in size; luciferase light after 4 h
Cruzain noTriton – blocks cruzain activity in detergent-free assay. purified cruzain, Z-FR-AMC fluorescence, no detergent. Potency, µM, for the others: max response, negative = inhibition, usual class: inhibitors. 2.3% of 200,000 active;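 also: plate controls were enzyme without inhibitor for no effect and buffer without enzyme for full effect; nearly all actives have a fitted effect of over 40% in size; top concentration of the series not given in the record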
Target sequence (P25779 123-467 limits assumed): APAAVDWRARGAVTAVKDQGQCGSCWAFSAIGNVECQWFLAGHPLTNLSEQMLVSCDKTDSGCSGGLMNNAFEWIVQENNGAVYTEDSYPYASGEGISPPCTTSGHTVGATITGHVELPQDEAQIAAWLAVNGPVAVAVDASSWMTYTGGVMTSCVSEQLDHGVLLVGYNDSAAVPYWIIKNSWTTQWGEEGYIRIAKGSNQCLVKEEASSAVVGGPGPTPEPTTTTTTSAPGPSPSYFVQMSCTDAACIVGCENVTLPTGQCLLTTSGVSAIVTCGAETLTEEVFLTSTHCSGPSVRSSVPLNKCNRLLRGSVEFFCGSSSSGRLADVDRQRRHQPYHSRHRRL
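Detergent-free condition (0.00005% Triton X-100) in acetate buffer pH 5.5 with DTT. 1.5 nM enzyme and compound were pre-mixed 15 min, then 2 uM Z-FR-AMC substrate added; reaction progress from fluorescence change between first and third reads (60 s).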
NS1 inh – inhibitors of influenza NS1 protein function; S. cerevisiae slowed by influenza A NS1, growth recovery by OD600; Potency, µM (series often up to 46.1 µM), inactives show at the highest dose activity, positive = more growth; 0.4% of 270,000 active; AID 2326; active means well fitted rising curve with a large enough effect; inconclusive means small, poorly fitted or top-dose-only effect; inactive means no such curve, though single readings can be large or run the other way; also: nearly all actives have a fitted effect of over 50% in size
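In this qHTS, NS1 from influenza A is expressed in budding yeast, where it slows growth. Cells are switched from glucose to 2% galactose medium (pH 6.0, -URA), treated with compound, and growth recovery is read at OD600.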
SARS PLP yeast – blocks SARS-CoV papain-like protease in a yeast assay; S. cerevisiae expressing SARS-CoV PLpro, growth rescue; control for the full effect not named in the record; Potency, µM (highest dose often 32.9 µM), for the others: at the highest dose activity, positive = growth rescue; 0.19% of 330,000 active; active means well fitted rising curve with a large enough effect; inconclusive means small, poorly fitted or top-dose-only effect; inactive means no such curve, though single readings can be large or run the other way; also: 0% is about no effect; nearly all actives have a fitted effect of over 55% in size; growth read by luminescence after 48 h
Cruzain inh Det – blocks cruzain activity in presence of Triton detergent; P25779; purified cruzain, Z-FR-AMC fluorescence, 0.01% Triton; Potency, µM, for inactives: max response, negative = inhibition, actives largely listed as inhibitors; 0.43% of 200,000 active; AID 1478;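 also: plate controls were neutral wells for no effect and buffer without enzyme for full effect; nearly all actives have a fitted effect of over 40% in size; top concentration of the series not given in the record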
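In this qHTS format, compounds are incubated with 1.5 nM cruzain for 15 min at room temperature before 2 uM Z-FR-AMC is added. Release of AMC is followed at 360/450 nm, and progress is taken as the 60 s fluorescence difference.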
RE007 growth inh – less growth of the S. pombe RE007 Vpr strain; S. pombe RE007 Vpr strain, BacTiter-Glo ATP luminescence, 24 h; control for the full effect not named in the record; 0.21% of 360,000 active; Potency, µM (highest dose often 92.2 µM), without a hit: top-dose activity change, negative = less growth; active = well fitted falling curve with a large enough effect; inconclusive = small, poorly fitted or top-dose-only effect; inactive = no such curve, though single readings can be large or run the other way;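 also: % is scaled to controls: 0 for no effect and ±100 for the full control effect; nearly all actives have a fitted effect of over 50% in size; the assay follows cell death caused by Vpr and the record does not say whether a fall means rescue or toxicity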
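Fission yeast RE007 carrying one integrated HIV-1 vpr copy, seeded at OD 0.01 in PMG+AL medium with 23 nL pinned compound. Grown 24 h at 30 degrees; viability read by BacTiter-Glo luminescence after 5 min.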
Active calls of the source: *; ? = inconclusive; nt = not tested or not shown; & = joins results of further samples; [ ] = remark or other dose. Unless noted, calls follow the shape of the dose curve; as a rule, active = well fitted curve in the direction sought with a large enough effect; inconclusive = small, poorly fitted or top-dose-only effect, or another doubt; inactive = no such curve, though single readings can be large; an effect the other way counts as inactive or inconclusive. Potency is read from the fitted curve at half-maximal effect.

SMILES	Lassa entry inh	Marburg entry inh	StopGo reporter	Cruzain noTriton	NS1 inh	SARS PLP yeast	Cruzain inh Det	RE007 growth inh
Cc1ccccc1Cn1c(CN2CCCC(C)C2)nc2c1c(=O)n(C)c(=O)n2C (stereo not drawn)	-2%[46.1 µM]	14%[46.1 µM]	-22%	6%	nt	nt	-0.7%	nt
Cc1cc(C)cc(OCCOc2cccc(C=C3C(=O)NC(=O)NC3=O)c2)c1	nt	nt	30%	nt	-21%	8%	nt	-7%
CC1CCCC(C)N1C(=O)CSc1nnc(C2CCCCC2)o1 (stereo not drawn)	-12%	-10%	38%[activator]	-5%	-20%	0%	3.2%	-17%
COc1cccc(-n2c(SCC(N)=O)nnc2-c2ccco2)c1	5%	6%	1%	nt	0%	-1%	nt	3%
O=C1C=CC(=O)C(C2=C3C(=O)N(CCc4ccccc4)CC(=O)N3CCC2)=C1	?	-5%	?	10%	14µM*	-1%	-3.0%	-11%
Cc1cc(C)c(C)c(S(=O)(=O)Nc2ccccc2C(=O)NN2CCOCC2)c1C	6%[46.1 µM]	?	5%	nt	nt	1%	nt	16%
O=C1C2(c3ccccc3)CN(CCO)CC1(c1ccccc1)CN(CCO)C2	-2%	0%	-4%	-3%	5%	2%	0.9%	-3%
C=CCn1c(SCC(=O)Nc2sc(C)c(C)c2C(=O)OCC)nnc1-c1sc(N)nc1C	?	?	-15%	?	-8%	-5%	-3.0%	-15%
CCOC(=O)N1CCN(C(=O)c2ccc3c(c2)N(CC)CCS3)CC1	nt	nt	-25%	2%	-2%	2%	2.0%	12%
COc1ccccc1Nc1ccc(N)cc1	nt	?	7%	nt	nt	0%	nt	-6%
CC(=O)Nc1ccc(NC(=O)C(C)OC(=O)/C(C#N)=C/c2ccc(N(C)C)cc2)cc1 (stereo not drawn)	24%	?	23%	nt	nt	2%	nt	18%
CCNc1c(NC(=O)c2ccc3c(c2)OCO3)c(=O)oc2ccccc12	nt	nt	-19%	nt	1%	1%	nt	10%
Cc1cccc(N(C)S(=O)(=O)c2ccc(-c3cnc(C4CC4)o3)cc2)c1	nt	nt	?	nt	-12%	-5%	nt	2%
CCOc1ccc(OCC)c(NC(=O)C2CCN(S(=O)(=O)c3ccc4c(c3)CC(C)N4C(C)=O)CC2)c1 (stereo not drawn)	-2%&-20%[46.1 µM]	?	-15%&0%	nt	10%	2%	nt	4%
Cc1ccc(NC(=O)CSc2nc3ccc(NC(=O)CCc4ccccc4)cc3s2)c(C)c1	-8%[46.1 µM]	-6%[46.1 µM]	?	4%	nt	nt	-0.5%	nt
COc1ccc(CN2CCCN(CC(=O)Nc3cc(C)ccc3C)S2(=O)=O)cc1	0%[46.1 µM]	nt	0%	10%	nt	nt	-3.8%	nt
NC1=NC(=O)/C(=C\c2ccsc2)S1	-1%[46.1 µM]	19%[46.1 µM]	-6%	nt	1%	22%	nt	-13%
O=C(NC(=S)NC1CCCCC1)c1ccc(F)cc1	?	?	22%	nt	-43%	3%	nt	?
CC(C)N1CCC(N2CCN(Cc3ccc(-c4ccccc4Cl)o3)CC2CCO)CC1 (stereo not drawn)	?	?	-20%	nt	1%	0%	nt	1%
O=C(CNC(=O)[C@@H]1Cc2ccccc2CN1)NC1CCCCC1	nt	nt	1%	nt	-5%	7%	nt	5%
CCOCCCn1c(SCC(=O)NC(C)C)nc2ccccc2c1=O	12%	0%	24%	2%	4%	-1%	-0.6%	12%
COc1ccc(N2CCN(C(=O)CCCC(=O)c3ccccc3)CC2)cc1	nt	nt	6%	nt	-26%	1%	nt	10%
COc1ccc(S(=O)(=O)N2CCCCCC2)cc1C(=O)N(C)Cc1ccc(C)cc1	-12%	-29%	-24%	nt	nt	0%	nt	-17%
O=C(/C=C/c1ccccc1)Nc1nc(-c2cccs2)ns1	15%[46.1 µM]	-2%[46.1 µM]	-1%	20µM*	nt	nt	-0.1%	nt
COC(=O)c1ccccc1NC(=O)CN(C1CCCCC1)S(C)(=O)=O	-5%	-4%	-14%	-5%	-8%	?	0.4%	19%

Next section.
SMILES	Lassa entry inh	Marburg entry inh	StopGo reporter	Cruzain noTriton	NS1 inh	SARS PLP yeast	Cruzain inh Det	RE007 growth inh
COC(=O)CNC(=O)CNC(=O)Nc1ccccc1	-4%	-3%	-3%	-4%	2%	-2%	3.1%	-15%
CSCc1ccc(C(=O)N2CCC(CCC(=O)N(C)Cc3ccccc3)CC2)o1	22%[46.1 µM]	4%[46.1 µM]	-8%	nt	-8%	1%	nt	-11%
COc1ccc(N=C2SC(C(=O)Nc3ccc(F)cc3)CC(=O)N2C)cc1 (stereo not drawn)	6%	-4%[46.1 µM]	-22%	nt	3%	0%	nt	6%
CN(C)CCC(=O)c1ccc(F)cc1	nt	nt	-6%	nt	-3%	1%	nt	-24%
Cc1[nH]c(=S)[nH]c(=O)c1CCCO	1%[46.1 µM]	-9%[46.1 µM]	16%	nt	-3%	-1%	nt	11%
CCc1ccc(N2C(=O)N(CC(=O)C(C)(C)C)c3ccccc3S2(=O)=O)cc1	29%[46.1 µM]	nt	?	-1%	nt	nt	1.9%	nt
COc1ccc(C2=CC(c3cccc(C)c3)n3nnnc3N2)cc1 (stereo not drawn)	-11%[46.1 µM]	nt	0%	1%	nt	nt	-5.7%	nt
CCOC(=O)C1(CC2CC2)CCN(C(=O)c2cccnc2C)CC1	-2%[46.1 µM]	?	28%	nt	2%	1%	nt	-3%
O=C(CSc1nc2nc3c(cc2c(=O)n1-c1ccccc1)CCCC3)Nc1cccc2ccccc12	4%	?	-22%	?	24%	14%	-1.6%	14%
c1ccc2c(c1)oc1c(N3CCN(Cc4ccc5c(c4)OCO5)CC3)ncnc12	?	?	-13%	6%	-56%	-9%	-4.3%	-16%
CSc1ccccc1C(=O)Nc1ccc(C)c(C)c1	?	8%	46%[activator]	1%	-73%	-16%	-3.8%	?
CCn1cc(C(=O)OCC(=O)Nc2cc(Cl)ccc2C)c(=O)c2ccc(C)nc21	-26%[46.1 µM]	2%[46.1 µM]	-22%	6%	nt	nt	-3.2%	nt
Cc1ccn2c(C(=O)NNC(=O)Nc3ccc(Cl)cc3)c(C)nc2c1	nt	nt	-9%	nt	-10%	-3%	nt	2%
O=C(Cc1c(F)cccc1Cl)Nc1ccc(S(=O)(=O)NCC2CCCO2)cc1 (stereo not drawn)	2%	?	2%	nt	-7%	0%	nt	14%
COc1ccccc1-n1c(SCC(=O)Nc2ccc3c(c2)OCO3)nc2c(c1=O)SCC2	?	-5%	-13%	-21%	?	?	-1.5%	2%
COc1cccc(CNC(=O)CSc2ncc3c(n2)-c2cc(Cl)ccc2N(C)S3(=O)=O)c1	-4%[46.1 µM]	nt	-26%	0%	nt	nt	0.6%	nt
O=[N+]([O-])/C(=C\Nc1ccccc1)S(=O)(=O)c1ccccc1	0%	0%	-4%	-2%	-12%	6%	0.9%	34%
CCOc1ccc(N(CC(=O)N/N=C/c2cc([N+](=O)[O-])ccc2Cl)S(C)(=O)=O)cc1	-21%	?	-26%	5%	8%	?	4.5%	-7%
CCOC(=O)C1C(=O)OC(C)(C)C1C(C)C(=O)c1ccc(OC)cc1 (stereo not drawn)	-5%	5%	?	-9%	-3%	4%	5.9%	-3%
COc1ccc(C(=O)Nc2ccccc2N2CCCC2)cc1	nt	nt	-19%	nt	-5%	0%	nt	0%
Oc1ccccc1CN(Cc1ccco1)CC(O)COCc1ccc(Cl)cc1 (stereo not drawn)	?	?	?	11%	-47%	-13%	-3.9%	4%
COc1cccc(Nc2ccc(C(=O)O)cc2[N+](=O)[O-])c1	4%	23%	-19%	-8%	-6%	-9%	-3.7%	-1%
CCOC(=O)N1CCN(S(=O)(=O)CCNC(=O)c2ccccc2)CC1	-13%	-4%[46.1 µM]	-8%	nt	nt	1%	nt	3%
CCc1ccc(NC(=O)CSc2nc(=O)n(Cc3ccccn3)c3c2CCC3)cc1	-25%[46.1 µM]	nt	?	24%	nt	nt	-2.3%	nt
CC(CNC(=O)c1ccccc1[N+](=O)[O-])NC(=O)c1ccccc1[N+](=O)[O-] (stereo not drawn)	-4%	14%[46.1 µM]	-12%	nt	nt	nt	nt	12%

The list goes on:
SMILES	Lassa entry inh	Marburg entry inh	StopGo reporter	Cruzain noTriton	NS1 inh	SARS PLP yeast	Cruzain inh Det	RE007 growth inh
COc1ccc(OC)c(NC(=O)c2cccc(C)c2[N+](=O)[O-])c1	nt	nt	-2%	nt	-7%	-2%	nt	-7%
CC(/C=N/NC(=O)c1cc(-c2ccc3ccccc3c2)n[nH]1)=C\c1ccco1	?	?	-3%	?	?	5%	-7.9%	-4%
CCN(CC)S(=O)(=O)c1cccc(-c2nnc(SCCCC(=O)c3ccccc3)o2)c1	?	?	?	15%	-36%	0%	0.4%	3%[3.69 µM]
COc1cccc(/C=C/c2nc(S(=O)(=O)c3ccccc3)c(N(C)C)o2)c1	nt	nt	-8%	nt	-2%	-1%	nt	1%
Nc1nc2c(c(=O)[nH]1)C(c1cccc3ccccc13)C1=C(N2)c2ccccc2C1=O (stereo not drawn)	?	?	-29%	nt	nt	-1%	nt	-10%
CCC(C(=O)Nc1cc(OC)ccc1OC)n1c(=O)c(C(F)(F)F)nc2ccccc21 (stereo not drawn)	2%[46.1 µM]	nt	0%	-4%	nt	nt	1.6%	nt
Cn1cnc(S(=O)(=O)N2CCC(C(=O)N3CCN(c4cccc(C(F)(F)F)c4)CC3)CC2)c1	-3%[46.1 µM]	nt	-4%	?	nt	nt	-4.4%	nt
O=c1cc(N2CCC3(CC2)OCCO3)[nH]c(=O)n1-c1ccc(Cl)cc1	-15%	7%	36%[activator]	-12%	-2%	-1%	4.3%	-7%
CC(OC(=O)Cn1cc(C(F)(F)F)ccc1=O)C(=O)N(C)c1ccccc1 (stereo not drawn)	-3%	6%	-9%	nt	nt	13%	nt	-1%
COc1ccccc1NS(=O)(=O)c1ccc(NC(=O)c2nc3nc(C)cc(C(F)F)n3n2)cc1	-13%	-1%	-3%	?	13%	4%	10%	8%
Cc1ccc(NC(=O)CSc2nnc(-c3n[nH]c4ccccc34)n2-c2ccccc2)c(C)c1	-27%	?	-10%	11%	-4%	5%	-0.1%	3%
O=[N+]([O-])c1ccccc1OCCCCN1CCCCC1	17%[14.3 µM]	9%	11%	6%	2%	1%	-1.1%	-2%
COc1ccc(Nc2nnc(-c3ccc(O)cc3)c3ccccc23)cc1C(N)=O	nt	nt	-3%	nt	-9%	1%	nt	-7%
O=C(NC(Cc1ccc(O)cc1)C(=O)O)/C(=C/c1ccccc1)NC(=O)c1ccccc1 (stereo not drawn)	?	4%	8%	nt	11%	-3%	nt	4%
Cc1cc(NC(=O)COc2ccc3oc4ccccc4c3c2)no1	-7%	-11%	-14%	?	-17%	2%	7.8%	-5%

Screening data deposited in PubChem BioAssay by National Center for Advancing Translational Sciences (NCATS).
